Cruzain inh noDet – qHTS Assay for Promiscuous and Specific Inhibitors of Cruzain (without detergent). purified cruzain, Z-FR-AMC fluorescence, no detergent. Potency, µM, inactives show max response, negative = inhibition, hits mostly inhibitors. 2.3% of 200,000 active;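 also: plate controls were enzyme without inhibitor for no effect and buffer without enzyme for full effect; nearly all actives have a fitted effect of over 40% in size; top concentration of the series not given in the record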
Target sequence (P25779 123-467 limits assumed): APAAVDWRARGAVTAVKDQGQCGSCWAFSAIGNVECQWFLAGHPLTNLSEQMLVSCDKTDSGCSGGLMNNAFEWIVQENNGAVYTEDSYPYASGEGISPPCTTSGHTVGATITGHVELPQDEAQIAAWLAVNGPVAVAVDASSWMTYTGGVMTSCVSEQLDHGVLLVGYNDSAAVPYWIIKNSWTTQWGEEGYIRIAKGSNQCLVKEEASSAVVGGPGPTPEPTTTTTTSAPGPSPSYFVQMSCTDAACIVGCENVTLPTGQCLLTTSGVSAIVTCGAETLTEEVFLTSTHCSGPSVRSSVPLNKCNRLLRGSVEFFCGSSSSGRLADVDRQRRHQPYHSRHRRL
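Detergent-free condition (0.00005% Triton X-100) in acetate buffer pH 5.5 with DTT. 1.5 nM enzyme and compound were pre-mixed 15 min, then 2 uM Z-FR-AMC substrate added; reaction progress from fluorescence change between first and third reads (60 s).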
LASV entry inh – qHTS for Inhibitors of binding or entry into cells for Lassa Virus; Lassa virus pseudotype entry inhibition, cell reporter; control for the full effect not named in the record; Potency, µM (top dose mostly 37.9 µM), inactives show at the top dose activity change, negative = inhibition, hits mostly inhibitors; 1.2% of 300,000 active; active means well fitted inhibition curve with a large enough effect; inconclusive means small, poorly fitted or top-dose-only effect, or effect the other way; inactive means flat fitted curve, though single readings scatter; tested in HEK293 cells; also: % is scaled to controls: 0 for no effect and ±100 for the full control effect; nearly all actives have a fitted effect of over 50% in size; luciferase read-out
RE007 growth inh – qHTS Assay for Inhibitors of the HIV-1 protein Vpr; Potency, µM (titrated, usually from 92.2 µM), inactives show at the highest dose activity change, negative = less growth; 0.21% of 360,000 active; S. pombe RE007 Vpr strain, BacTiter-Glo ATP luminescence, 24 h; control for the full effect not named in the record; AID 651644, 2012; active = well fitted falling curve with a large enough effect; inconclusive = small, poorly fitted or top-dose-only effect; inactive = no such curve, though single readings can be large or run the other way;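 also: % is scaled to controls: 0 for no effect and ±100 for the full control effect; nearly all actives have a fitted effect of over 50% in size; the assay follows cell death caused by Vpr and the record does not say whether a fall means rescue or toxicity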
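Fission yeast RE007 carrying one integrated HIV-1 vpr copy, seeded at OD 0.01 in PMG+AL medium with 23 nL pinned compound. Grown 24 h at 30 degrees; viability read by BacTiter-Glo luminescence after 5 min.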
Marburg entry inh – qHTS for inhibitors of binding or entry into cells for Marburg Virus; AID 540276, 2011; Marburg virus pseudotyped entry inhibition, cell reporter; control for the full effect not named in the record; about a third of the inactives were read at about 46 µM; Potency, µM (series often up to 37.8 µM), without a hit: top-dose activity change, negative = inhibition, hits mostly inhibitors; 1.8% of 300,000 active; active = well fitted inhibition curve with a large enough effect; inconclusive = small, poorly fitted or top-dose-only effect, or effect the other way; inactive = flat fitted curve, though single readings scatter; tested in HEK293 cells; about a fifth of its hits are not listed in these tables; also: % is scaled to controls: 0 for no effect and ±100 for the full control effect; luciferase read-out
2A StopGo – High Throughput Screening for Foot and Mouth Disease Virus Antivirals; Potency, µM (titrated, usually from 57.9 µM), without a hit: at the highest dose signal change, negative = less light; human cells with a luciferase reporter of 2A StopGo recoding; control for the full effect not named in the record; AID 1159524, 2015; 1.2% of 410,000 active; active = well fitted falling curve with a large enough effect; inconclusive = small, poorly fitted or top-dose-only effect; inactive = no such curve, though single readings can be large or run the other way; tested in HEK293T cells; also: % is scaled to controls: 0 for no effect and ±100 for the full control effect; nearly all actives have a fitted effect of over 45% in size; luciferase light after 4 h
Cruzain inh Det – qHTS Assay for Promiscuous and Specific Inhibitors of Cruzain (with detergent). 0.43% of 200,000 active. Cruzipain (Trypanosoma cruzi), P25779. purified cruzain, Z-FR-AMC fluorescence, 0.01% Triton. Potency, µM, inactives show max response, negative = inhibition, usual class: inhibitors;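 also: plate controls were neutral wells for no effect and buffer without enzyme for full effect; nearly all actives have a fitted effect of over 40% in size; top concentration of the series not given in the record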
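Purified cruzain (1.5 nM final) was preincubated with compounds for 15 min at room temperature in 100 mM sodium acetate pH 5.5, 5 mM DTT, 0.01% Triton X-100. Reaction started with 2 uM Z-FR-AMC; AMC fluorescence change over 60 s gave activity.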
SARS PLpro yeast – qHTS of Yeast-based Assay for SARS-CoV PLP. S. cerevisiae expressing SARS-CoV PLpro, growth rescue; control for the full effect not named in the record. Potency, µM (titrated, usually from 32.9 µM), without a hit: at the highest dose activity, positive = growth rescue. 0.19% of 330,000 active; active means well fitted rising curve with a large enough effect; inconclusive means small, poorly fitted or top-dose-only effect; inactive means no such curve, though single readings can be large or run the other way; also: 0% is about no effect; nearly all actives have a fitted effect of over 55% in size; growth read by luminescence after 48 h
NS1 inh – qHTS Assay for Inhibitors of Influenza NS1 Protein Function; AID 2326, 2010; Potency, µM (titrated, usually from 46.1 µM), inactives show at the top dose activity, positive = more growth; S. cerevisiae slowed by influenza A NS1, growth recovery by OD600; 0.4% of 270,000 active; active means well fitted rising curve with a large enough effect; inconclusive means small, poorly fitted or top-dose-only effect; inactive means no such curve, though single readings can be large or run the other way; also: nearly all actives have a fitted effect of over 50% in size
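In this qHTS, NS1 from influenza A is expressed in budding yeast, where it slows growth. Cells are switched from glucose to 2% galactose medium (pH 6.0, -URA), treated with compound, and growth recovery is read at OD600.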
Numbers without * were called inactive; u = inconclusive; x = no result given; & = joins results of further samples; [ ] = remark or other dose. Unless noted, calls follow the shape of the dose curve; as a rule, active = well fitted curve in the direction sought with a large enough effect; inconclusive = small, poorly fitted or top-dose-only effect, or another doubt; inactive = no such curve, though single readings can be large; an effect the other way counts as inactive or inconclusive. Potency is read from the fitted curve at half-maximal effect.

The line under a structure holds: Cruzain inh noDet, LASV entry inh, RE007 growth inh, Marburg entry inh, 2A StopGo, Cruzain inh Det, SARS PLpro yeast, NS1 inh
1	COc1ccc(-c2nnc3c4ccccc4c(C)nn23)cc1S(=O)(=O)N1CCN(CCO)CC1
    -14%, 0%, 16%, -16%, 12%, -4.7%, -13%, 0%
2	CN1C(=O)C2C(c3ccc(N(C)C)cc3)NN(Cc3ccccc3)C2C1=O (stereo not given)
    x, 6%, 15%, 20%[14.2 µM], 20%, x, -1%, 6%
3	CCOC(=O)COc1ccc(S(=O)(=O)Nc2ccc3c(c2)OCCO3)cc1
    -26%, 24%, -5%, 21%, x, 0.9%, -1%, -7%
4	CC(C)c1ccc(CN(Cc2ccco2)c2cnc(S(C)(=O)=O)nc2C(=O)Nc2ccccc2)cc1
    u, -23%[46.1 µM], x, u, -25%, -3.9%, x, x
5	CCN(C(=O)c1cc2c(C)nc3ccccc3c2o1)c1cc(Cl)ccc1OC
    x, u, -4%, 13µM*, u, x, -8%, -6%
6	O=C(CN1CCN(c2ccccc2)CC1)Nc1ccc2c(c1)CCC2
    1%, -36%, 8%, u, 14%, -0.6%, 2%, -1%
7	COc1ccc(-n2c(-c3ccc(Cl)cc3)cc3c2CC(C)(C)CC3=O)c(OC)c1
    10%, -6%[46.1 µM], x, x, -27%, -2.5%, x, x
8	CC(C)[C@H](NC(=O)C1CC(=O)N(c2ccc3c(c2)OCO3)C1)C(=O)NC1CCCC1 (stereo not given in full)
    x, x, -18%, x, 0%, x, 4%, -2%
9	COC(=O)c1ccccc1NC(=O)c1cc(-c2cccs2)on1
    -2%, -2%, -13%, -27%, 28%, 2.0%, 5%, -4%
10	Cc1ccc(S(=O)(=O)N2CCOCC2)cc1NC(=O)COC(=O)/C=C/c1ccc(F)cc1
    x, 4%, -23%, 23%, -15%, x, -4%, x
11	Cc1ccc(C2=NN(C(=O)c3ccco3)C(O)(C(F)(F)F)C2)cc1 (stereo not given)
    x, -24%[46.1 µM], -3%, -3%[46.1 µM], -2%, x, -3%, -5%
12	COCCC(=O)N1CCCC(C(=O)c2ccc(Oc3ccccc3)cc2)C1 (stereo not given)
    x, u, 3%, u, -17%, x, -3%, -4%
13	CN1CCN(Cc2cc(C(C)(C)C)c(O)c(C(C)(C)C)c2)CC1
    -3%, -16%, 8%, -24%, -15%, 3.7%, -4%, 4%
14	O=S(=O)(Nc1ccc(-n2cccc2)cc1)c1ccc(F)cc1
    x, -18%, -4%, -27%[46.1 µM], 16%, x, -16%, -2%
15	CC(OC(=O)c1ccncc1)C(=O)NC1CCCC1 (stereo not given)
    x, 5%[46.1 µM], -7%, -12%[46.1 µM], 16%, x, -2%, x
16	CCCN1CCC(NC(=S)Nc2ccc([N+](=O)[O-])cc2)CC1
    x, x, -2%, x, 21%, x, 0%, 3%
17	NS(=O)(=O)c1ccc(NC(=O)c2ccccc2Cl)cc1
    -1%, 5%, -17%, u, 17%, 0.5%, 7%, 3%
18	Cc1ccsc1CN(C(=O)c1oc2cc(Br)ccc2c1C)C1CCS(=O)(=O)C1 (stereo not given)
    14%, u, x, u, 0%, -6.6%, x, x
19	N#Cc1c2n(c3c(=O)n(Cc4ccccc4Cl)cnc13)CCCCC2
    -9%, -23%, 6%, -23%, u, -2.9%, -1%, -39%
20	Cc1ccc(NC(=O)Cn2cccc2)cc1
    x, 0%, 5%, 21%, -10%, x, -1%, x
21	Cc1ccc(CCS(=O)(=O)c2ccc(C(C)(C)C)cc2)cn1
    x, -15%, 1%, u, u, x, -2%, -3%
22	Cc1cc(C)n2nc(SC(C)C(=O)N3CCC4(CC3)OCCO4)nc2n1 (stereo not given)
    6%, 24%[14.3 µM], 8%, 4%, 18%, -1.4%, 8%, -9%
23	COc1ccc(-c2cn3cccnc3n2)cc1Br
    8%, u, -6%, u, 29%, -16%, -56%, -31%
24	COc1ccc(C(=O)NCC(=O)N/N=C/c2c(C)[nH]c3ccccc23)cc1OC
    x, x, -4%, x, -11%, x, 0%, 0%
25	COc1ccc(CCN=Cc2c(C)[nH]n(-c3ccc([N+](=O)[O-])cc3)c2=O)cc1OC
    x, 18%, 0%, 4%, -11%, x, 4%, x
26	CCCOc1ccc(CNC(=O)C2CCN(c3nn4c(=O)cc(C)nc4s3)CC2)cc1
    -2%, 22%[46.1 µM], 2%, 2%&2%[46.1 µM], -28%&-27%, -2.2%, 10%, 19%
27	Cc1c(Br)c([N+](=O)[O-])nn1C(C)C(=O)N1CCc2ccccc2C1 (stereo not given)
    x, x, -1%, x, -23%, x, 1%, 28%
28	CCC(=O)N(Cc1cc(=O)[nH]c2ccccc12)c1ccc(OC)cc1
    x, -20%, 12%, u, -12%, x, 0%, 4%
29	COc1ccc(CCNC(=O)c2ccc(Cn3c(=O)c4ccccc4n(Cc4ccccc4Cl)c3=O)cc2)cc1OC
    -11%, 25%[46.1 µM], x, 12%[46.1 µM], 0%, -0.9%, x, x
30	O=C(COc1cc(=O)n2c(n1)SCCC2)c1ccccc1
    -1%, 9%, -22%, u, 39%[activator], 4.5%, -15%, 1%
31	COc1ccc(Cc2nc3c([nH]2)c(=O)n(C)c(=O)n3C)cc1OC
    x, 11%[46.1 µM], -17%, u, -18%, x, x, x
32	Cc1ccc(C)n1-c1ccc(C(=O)NC2CCN(Cc3ccccc3)CC2)cc1
    11%, u, -13%, u, u, -3.1%, -3%, 2%
33	Cc1coc2c1c(C)cc1oc(=O)c(CC(=O)NCc3ccc(Cl)cc3)c(C)c12
    3%, 17%[46.1 µM], x, 5%[46.1 µM], 7%, 2.1%, x, x
34	CCn1c(CNC(=O)c2ccccc2)nnc1SCC(=O)N1CCN(c2ccccc2)CC1
    10%, 27%, -9%, 6%, -6%, -2.1%, -3%, 6%
35	COC(=O)C1=C(N)Oc2cc(C)n(C)c(=O)c2C1c1ccc(Cl)cc1 (stereo not given)
    -1%, -11%, -19%, -25%, -22%, 0.8%, -4%, 8%
36	O=C(Nc1ccccc1)N(Cc1ccc(F)cc1)c1ccccn1
    1%, 13%[46.1 µM], x, -1%[46.1 µM], -1%, -6.8%, x, x
37	CC(=O)NC(=S)NNC(=O)CCc1ccccc1
    x, x, 3%, x, -4%, x, 0%, -4%
38	Cn1c(=O)c(C(=O)CN2CCCc3ccccc32)c(N)n(Cc2ccccc2)c1=O
    u, 1%, -21%, -13%, -15%, -4.2%, 6%, u
39	CCCCc1ccc(NC(=O)c2cc3c(=O)n4ccccc4nc3s2)cc1
    1%, 5%[46.1 µM], x, -18%[46.1 µM], u, -2.4%, x, x
40	Cc1ccc(OCC(=O)Nc2ccccc2Sc2ccccc2)c([N+](=O)[O-])n1
    -9%, u, 26%, -4%, -8%, -6.7%, 7%, 7%

Part of the list above in order of SMILES length, ascending.
The line under a structure holds: Cruzain inh noDet, LASV entry inh, RE007 growth inh, Marburg entry inh, 2A StopGo, Cruzain inh Det, SARS PLpro yeast, NS1 inh
37	CC(=O)NC(=S)NNC(=O)CCc1ccccc1
    x, x, 3%, x, -4%, x, 0%, -4%
30	O=C(COc1cc(=O)n2c(n1)SCCC2)c1ccccc1
    -1%, 9%, -22%, u, 39%[activator], 4.5%, -15%, 1%
39	CCCCc1ccc(NC(=O)c2cc3c(=O)n4ccccc4nc3s2)cc1
    1%, 5%[46.1 µM], x, -18%[46.1 µM], u, -2.4%, x, x
31	COc1ccc(Cc2nc3c([nH]2)c(=O)n(C)c(=O)n3C)cc1OC
    x, 11%[46.1 µM], -17%, u, -18%, x, x, x
32	Cc1ccc(C)n1-c1ccc(C(=O)NC2CCN(Cc3ccccc3)CC2)cc1
    11%, u, -13%, u, u, -3.1%, -3%, 2%
40	Cc1ccc(OCC(=O)Nc2ccccc2Sc2ccccc2)c([N+](=O)[O-])n1
    -9%, u, 26%, -4%, -8%, -6.7%, 7%, 7%
34	CCn1c(CNC(=O)c2ccccc2)nnc1SCC(=O)N1CCN(c2ccccc2)CC1
    10%, 27%, -9%, 6%, -6%, -2.1%, -3%, 6%
33	Cc1coc2c1c(C)cc1oc(=O)c(CC(=O)NCc3ccc(Cl)cc3)c(C)c12
    3%, 17%[46.1 µM], x, 5%[46.1 µM], 7%, 2.1%, x, x

More records follow:
The line under a structure holds: Cruzain inh noDet, LASV entry inh, RE007 growth inh, Marburg entry inh, 2A StopGo, Cruzain inh Det, SARS PLpro yeast, NS1 inh
41	Cc1ccc(CSCc2ccc(C(=O)O)o2)cc1
    x, x, 3%, x, 5%, x, 2%, 3%
42	COc1ccc(C(=O)Nc2cccc(OC(=O)c3ccco3)c2)cc1
    x, -17%, 7%, -12%[46.1 µM], 26%, x, -7%, -12%
43	O=[N+]([O-])c1cccc(C=Nc2cccc3ccccc23)c1O
    x, 6%[46.1 µM], -19%, u, -4%, x, -7%, -21%
44	Cc1noc(C)c1S(=O)(=O)Nc1ccc(C(=O)NCCc2ccccc2)cc1
    8%, 9%, -6%, 3%[46.1 µM], -18%, -10%, 3%, -9%
45	CCC(c1nnnn1Cc1ccco1)N(Cc1cc2cc(OC)ccc2[nH]c1=O)C1CCCCC1 (stereo not given)
    u, u, 8%, u, -20%, -15%, 5%, -19%
46	CCN(CC)C(=O)c1ccc(Nc2nnc(-c3ccc(C)c(S(=O)(=O)NC)c3)c3ccccc23)cc1
    u, u, x, x, 25%, -8.1%, x, x
47	CCOC(=O)COc1ccc(S(=O)(=O)N2CCc3ccccc3C2)cc1
    -6%, 6%, -9%, 5%, x, -3.4%, -18%, -40%
48	CCC1CCCCN1CCCNS(=O)(=O)c1ccc2c(c1)oc(=O)n2C (stereo not given)
    x, u, 10%, -11%[46.1 µM], 1%, x, x, 4%
49	Cc1c2c([n+]3n1CCC3)CC(C)(C)CC2=O
    0%, 4%, 9%, 5%&5%, x, 2.9%, 8%, 17%
50	CCCCn1c(=O)c2ccccc2c2ccccc2c1=O
    -10%, 12%, -27%, 3%, 0%, -11%, -18%, -104%

Assay outcomes from PubChem BioAssay.
